# CBX7 inh: inhibitors of human CBX7 binding to H3K27me3 peptide; 1.1% of 66,000 active; AID 1224903; normalised signal (fraction of DMSO) (no concentration beside the values); O95931; AlphaScreen His6-CBX7 / biotin-H3K27me3 peptide binding; stronger effect = lower value; in the data active = normalised signal below about 0.5;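 also: 100 nL library stock added to about 20 µL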
# Target sequence (O95931 whole entry, looked up): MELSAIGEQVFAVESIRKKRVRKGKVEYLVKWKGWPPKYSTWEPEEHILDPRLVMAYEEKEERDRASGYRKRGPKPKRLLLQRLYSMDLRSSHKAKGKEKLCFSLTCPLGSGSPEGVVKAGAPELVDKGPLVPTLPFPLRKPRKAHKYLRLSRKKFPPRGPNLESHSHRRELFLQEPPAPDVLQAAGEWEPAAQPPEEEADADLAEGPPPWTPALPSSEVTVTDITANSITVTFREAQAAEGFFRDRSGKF
# CBX7 inh z-score: further read-out of CBX7 inh, marked with its call; z-score; measured here: z-score of CBX7 signal; some inactives read as strong as hits; reference of the scale not given here;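 same signal on another scale; lower means less binding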
# * = called active by the depositor. A portion of the library, so the mix of outcomes need not match the whole.
SMILES,CBX7 inh,CBX7 inh z-score
Cc1ccccc1NS(=O)(=O)c1ccc2[nH]cc(C(=O)NC3CCCCC3C)c(=O)c2c1 (stereo not drawn),0.64,-6.8
CCC1CCCCN1CCCNC(=O)c1ccc2nc(N3CCC(C)CC3)sc2c1 (stereo not drawn),1.6,5.5
O=C(Nc1cccc(-c2nc3ccccc3o2)c1)c1ccc(Cl)c(Cl)c1,1,0.38
CN(C)CCNC(=O)c1cc(-c2ccccc2)nc2ccccc12,1,1.4
CCCC1=Nc2cc(C(=O)NCCc3ccccc3)ccc2Sc2ccc(C)cc21,0.81,-2.7
CCCCCCOc1ccc(N2C(=O)CC(N3CCN(C)CC3)C2=O)cc1 (stereo not drawn),0.93,-1
O=C(Nc1ccc2c(c1)OCCO2)C1CCCN1S(=O)(=O)c1cccc2cccnc12 (stereo not drawn),0.98,-0.74
Cc1cc(C)n2c(Nc3c(C)cccc3C)c(-c3ccc(N(C)C)cc3)nc2n1,0.68,-3.5
CC(C)c1ccc(OCC(=O)NCCc2nc3ccccc3[nH]2)cc1,0.97,-1.4
COc1ccc(-c2cn(-c3cccc(Cl)c3)c(=O)[nH]2)cc1,0.95,-1.5
CCOc1ccc(C2C(N3C(=O)c4ccccc4C3=O)C(=O)N2c2ccc(Br)cc2)cc1 (stereo not drawn),0.87,-3.9
O=C(NCCOc1cccc2cccnc12)c1cc(C(F)(F)F)cc(C(F)(F)F)c1,1.1,0.65
COc1ccc(CNC(=O)CN2C(=O)COc3cc(S(=O)(=O)N4CCCC4)ccc32)cc1,0.95,-1
COc1ccccc1OCC(O)CN1CCN(CC(O)COc2ccccc2OC)CC1 (stereo not drawn),1.1,2.3
Cc1cc(N2CCN(c3cccc(C(F)(F)F)c3)CC2)n2nc(C)c(-c3ccccc3)c2n1,1.1,2.9
CN(CC(=O)Nc1ccc(Cl)cc1F)S(=O)(=O)c1cccc2cccnc12,1,0.79
CCOc1ccccc1-c1cc(C(=O)OC)c2ccccc2n1,1.4,10
COc1ccc(CNC(=O)C(=O)Nc2ccc(OC)cc2OC)cc1,1.1,2.1
CCc1nnc(NC(=O)COc2ccc(Br)cc2)s1,1.1,1.2
COc1ccc(CCn2c(=O)c3cccnc3n(CC(N)=O)c2=O)cc1OC,0.8,-2.2
CCOC(=O)c1c(C)n(C)c2ccc(OCC(O)CNc3ccc(C)cc3C)cc12 (stereo not drawn),0.9,-4.4
CC(C)Oc1ccc(CNC(=O)c2ccc3nc(N4CCOCC4)sc3c2)cc1,1,1.1
CC1CCN(C(=O)c2ccc(CNc3c(N4CCC(C)CC4)c(=O)c3=O)cc2)CC1,1,1.2
COc1ccc(OC)c(C2=NOC(C(=O)Nc3ccc(C#N)cc3)C2)c1 (stereo not drawn),1,0.14
O=C(CN1C(=O)CSc2ncccc21)NCc1ccc2c(c1)OCO2,1.1,2.7
CCOC(=O)c1c(NC(=O)CSc2nc3ccccc3o2)sc2c1CCCC2,0.95,-0.84
CC(NC(=O)CCC1=NS(=O)(=O)c2ccccc2N1)c1ccccc1 (stereo not drawn),1,0.65
CCOc1ccccc1NC1c2ccccc2C(=O)N1c1ccccn1 (stereo not drawn),0.98,-0.65
COc1cc(NC(=O)Cc2ccc(-n3c(=O)[nH]c4ccsc4c3=O)cc2)cc(OC)c1,0.9,-2.1
COc1ccc(CCNC(=O)C2CC(=O)N(c3ccc(C)cc3)C2)cc1 (stereo not drawn),0.93,-0.81
O=C(Nc1cccnc1)c1cccc(COc2ccccc2Cl)c1,0.97,-0.65
COc1ccc(OC)c2[nH]c(=O)c(CCNC(=O)c3cccs3)cc12,1,-0.0027
CCOc1ccc2c(c1)c(=O)c(S(=O)(=O)c1ccccc1)cn2Cc1ccc(F)cc1,0.96,-0.86
COc1cc(Nc2nc(-c3ccccc3Cl)nc3ccccc23)cc(OC)c1,1.1,1.6
COc1ccc(-c2csc(Nc3ccc(NC(C)=O)cc3)n2)cc1OC,0.79,-5.8
CCN(CCCNC(=O)c1ccc(NC2=NC3CS(=O)(=O)CC3S2)cc1)c1cccc(C)c1 (stereo not drawn),0.82,-3.3
CCCC(=O)NCc1nc2ccccc2n1Cc1ccccc1C,0.95,-0.59
CC(=O)Nc1ccc(Oc2ccc3c(c2)C(=O)N(c2ccc(Br)cc2)C3=O)cc1,1,0.071
Cc1ccc(OCC(O)CN2C(=O)NC(C)(C)C2=O)c(C)c1 (stereo not drawn),1,-0.14
Cc1cc(C)c(C#N)c(Nc2ccc(C3CCCCC3)cc2)n1,1.5,15
CC1(C)CC(=O)N(CC(=O)N2CCN(c3ccccn3)CC2)c2ccccc2S1,1,1.5
COCC(C)NC(=O)c1c(-c2ccccc2)noc1C (stereo not drawn),1.1,2.2
Cc1nnc(SCC(=O)Nc2ccc(Cl)c(Cl)c2)[nH]c1=O,0.82,-2.2
O=c1[nH]c(-c2ccc(F)cc2)cn1-c1cccc(Br)c1,1,0.4
Cc1cccc2sc(NC(=O)C3CCN(S(=O)(=O)c4cnc[nH]4)CC3)nc12,1.1,0.74
O=C(NCCc1ccccc1)c1ccc2c(c1)N(Cc1ccc(Cl)cc1)C(=O)c1ccccc1S2=O (stereo not drawn),1.1,3.2
CCC1Sc2ccccc2N(CC(=O)NCCCN2CCOCC2)C1=O (stereo not drawn),1,1.1
Cc1ccccc1NS(=O)(=O)c1ccc2c(c1)CCN2C(=O)C1CCC1,0.93,-2.4
COc1cc2c(C(=O)NCCC(C)C)cn(C)c(=O)c2cc1OC,1.1,2.5
O=C(c1cc(-c2ccco2)on1)N1CCN(C(c2ccccc2)c2ccccc2)CC1,0.87,-3.6
COc1ccc(C)cc1NC(=O)C(NS(=O)(=O)c1ccc2nc(C)sc2c1)C(C)C (stereo not drawn),1,0.3
Cc1ccc(-c2n[nH]c(=O)c3ccccc23)cc1S(=O)(=O)N1CCN(C)CC1,1,0.03
COc1ccc(N2CCC(CNC(=O)Nc3ccc(Cl)cc3)C2)cc1 (stereo not drawn),0.91,-3.4
COc1ccc2c(c1)CCc1sc(NC(=O)c3cccc(Br)c3)nc1-2,1,0.19
CCCCNC(=O)c1cc(=O)[nH]c2ccc(S(=O)(=O)N3CCCCC3CC)cc12 (stereo not drawn),1.1,1.1
CC1CCC(NC(=O)C2c3cccn3CC(=O)N2Cc2ccccc2Cl)CC1 (stereo not drawn),1.3,1.6
O=C(NC1CC1)c1ccc2c(c1)N(Cc1ccc(Cl)cc1)CCS2,1.1,0.89
CCOc1ccc(-n2c(Cc3cc(=O)[nH]c(=O)[nH]3)nnc2SCC(=O)NC2CCCC2)cc1,0.98,-0.54
C=CCN(CC=C)S(=O)(=O)c1ccc(C(=O)Nc2nnc(-c3cccs3)o2)cc1,0.88,-3
CCCCN(CC)C(=O)c1c[nH]c2ccc(S(=O)(=O)N(C)c3ccc(C(C)C)cc3)cc2c1=O,0.7,-4.1

# (next part)
SMILES,CBX7 inh,CBX7 inh z-score
COc1ccccc1N1CCN(c2nc(-c3ccc(C)cc3)nc3ccccc23)CC1,0.91,-0.091
Cc1ccc(-c2nc(NC(=O)C(C)C)sc2C)cc1,0.96,-0.88
Cc1ccc(NC(=O)C(Cc2ccccc2)N2C(=O)c3ccccc3C2=O)c(Br)c1 (stereo not drawn),0.84,-3.9
Cc1cc(C(=O)NCc2cccs2)c2ccccc2n1,1,0.27
Brc1ccc(Nc2nc(-c3ccc(I)cc3)cs2)cc1,0.71,-4.7
COc1cccc(C2=NOC(C(=O)N3CCN(c4ccccc4OC)CC3)C2)c1 (stereo not drawn),0.79,-2.8
COc1ccc2nc(SCC(=O)Nc3ccc(Cl)c(Cl)c3)[nH]c2c1,0.85,-2.4
CCOc1cc2c(cc1OCC)C(c1ccc(OC(F)(F)F)cc1)NCC2 (stereo not drawn),1.1,1.5
CCn1c(C(=O)NC2CCCC(C)C2C)cc2sc(Cl)cc21 (stereo not drawn),1.2,2.6
Cc1nc2cc(-c3ccccc3)nn2c(C)c1CCC(=O)NC1CCCC1,0.94,-0.99
CC(C)C(=O)NC(C)C(c1cccs1)N1CCN(c2ccccc2)CC1 (stereo not drawn),1.2,1.9
Cc1ccc(-c2csc(NC(=O)c3ccccc3NS(=O)(=O)c3ccc(C)cc3)n2)cc1,0.96,-0.49
CCc1ccc(S(=O)(=O)Nc2ccc3oc4c(c3c2)C(=O)CCC4)cc1,1,0.12
CCN1C(=O)c2ccccc2S(=O)(=O)c2ccc(C(=O)N(C)C3CCCCC3)cc21,1.1,1.5
CCOC(=O)c1cnc2cc(C(F)(F)F)ccc2c1Nc1cc(Cl)ccc1OC,1,0.076
Cc1c(C(=O)Nc2cccc(Cl)c2)oc2ccc(S(=O)(=O)N3CCCCC3)cc12,1,1.5
CCOC(=O)N1CCN(c2c(NC(CC)Cc3ccccc3)c(=O)c2=O)CC1 (stereo not drawn),1,0.34
O=C(c1cnn(-c2ccccc2)c1-n1cccc1)N1CCN(Cc2ccc3c(c2)OCO3)CC1,1,1.1
COCCCNC(=O)c1cc(Nc2ccc(OC)cc2OC)nc2ccccc12,0.84,-2.4
O=C1CC(c2ccc3c(c2)OCO3)CC2=C1C(c1ccncc1)Nc1ccccc1N2 (stereo not drawn),0.87,-1.5
Cn1cnnc1SCC(=O)Nc1nn(-c2ccccc2)nc1C(N)=O,0.97,-0.5
COc1ccc(Nc2cc(C)nc3ncnn23)cc1OC,1,0.17
Cc1ccc2cc(CCNC(=O)COc3ccc4ccccc4c3)c(=O)[nH]c2c1C,1.1,1.4
COc1ccc(C(NC(=O)CCc2ccccc2)c2ccc3cccnc3c2O)cc1OC (stereo not drawn),0.039*,-3.4*
COCCNC(=O)c1ccc2c(c1)N=C(C)c1cc(Br)ccc1S2,1,-0.23
CC(C)CN(CCNC(=O)C1CCN(c2nc3ccccc3[nH]2)CC1)CC(C)C,0.92,-0.95
CCOCCCNC(=O)c1ccc2c(c1)nc(C)n2-c1cc(Cl)ccc1OC,1,2
Oc1ccccc1-c1n[nH]c(-c2ccccc2O)n1,0.75,-3.9
Cc1cc(NCCc2ccc(Cl)cc2)n2ncnc2n1,1.2,2.5
COc1ccccc1CNS(=O)(=O)c1ccc2[nH]cc(C(=O)O)c(=O)c2c1,0.71,-3.8
Cc1ccc(-c2noc(-c3ccc(Cl)c(Cl)c3)n2)cc1,1,0.32
COc1ccccc1CNC(=O)CN1N=C(c2ccccc2)CCC1=O,1.1,0.85
CN(CCc1ccccn1)C(=O)C(Cc1ccccc1)NS(=O)(=O)c1ccc2c(c1)CCC(=O)N2 (stereo not drawn),1,0.2
Cc1ccc(CCN2C(=O)c3ccccc3C2C(=O)NCc2cccnc2)cc1 (stereo not drawn),1,1.8
Clc1ccc(C(c2nnnn2-c2ccccc2)N2CCOCC2)cc1 (stereo not drawn),1,0.45
CNC(=O)CN1C(=O)COc2ccc(S(=O)(=O)N3CCCC3)cc21,0.92,-1.3
Cc1ccccc1-c1nc(CN2CCCC(C(=O)NCCCSC3CCCCC3)C2)c(C)o1 (stereo not drawn),0.98,-0.43
COCCNC(=O)c1cc(Nc2ccccc2OC)nc2ccccc12,1,0.26
O=C1CCc2cc(S(=O)(=O)N3CCC(C(=O)NCc4cccnc4)CC3)ccc2N1,0.98,-0.41
OC(CN1CCCC1)Cn1c2ccccc2c2ccccc21 (stereo not drawn),1,0.89

# 14 entries out of the list, arranged by number of heavy atoms, ascending.
SMILES,CBX7 inh,CBX7 inh z-score
Oc1ccccc1-c1n[nH]c(-c2ccccc2O)n1,0.75,-3.9
Cc1cc(NCCc2ccc(Cl)cc2)n2ncnc2n1,1.2,2.5
COc1ccc(Nc2cc(C)nc3ncnn23)cc1OC,1,0.17
OC(CN1CCCC1)Cn1c2ccccc2c2ccccc21 (stereo not drawn),1,0.89
CNC(=O)CN1C(=O)COc2ccc(S(=O)(=O)N3CCCC3)cc21,0.92,-1.3
Clc1ccc(C(c2nnnn2-c2ccccc2)N2CCOCC2)cc1 (stereo not drawn),1,0.45
COCCNC(=O)c1cc(Nc2ccccc2OC)nc2ccccc12,1,0.26
COc1ccccc1CNS(=O)(=O)c1ccc2[nH]cc(C(=O)O)c(=O)c2c1,0.71,-3.8
CCOCCCNC(=O)c1ccc2c(c1)nc(C)n2-c1cc(Cl)ccc1OC,1,2
COCCCNC(=O)c1cc(Nc2ccc(OC)cc2OC)nc2ccccc12,0.84,-2.4
Cc1ccc2cc(CCNC(=O)COc3ccc4ccccc4c3)c(=O)[nH]c2c1C,1.1,1.4
O=C1CC(c2ccc3c(c2)OCO3)CC2=C1C(c1ccncc1)Nc1ccccc1N2 (stereo not drawn),0.87,-1.5
Cc1ccccc1-c1nc(CN2CCCC(C(=O)NCCCSC3CCCCC3)C2)c(C)o1 (stereo not drawn),0.98,-0.43
CN(CCc1ccccn1)C(=O)C(Cc1ccccc1)NS(=O)(=O)c1ccc2c(c1)CCC(=O)N2 (stereo not drawn),1,0.2

# Following part:
SMILES,CBX7 inh,CBX7 inh z-score
Cc1cccc(-n2ncc3c(NCCCN(C)C)ncnc32)c1,0.9,-1.5
CCOc1ccc(CCNS(=O)(=O)c2ccc3c(c2)CCN3C(=O)C2CCC2)cc1OCC,0.96,-1.3
COc1ccc(OC)c(-c2nc(-c3ccccc3)c(-c3ccccc3)[nH]2)c1,0.41*,-15*
COc1cc2c(cc1OC)C(c1ccc3c(c1)OCO3)CC(=O)N2 (stereo not drawn),0.77,-0.63
CC(C)c1ccc(Cn2c(COc3ccc(Cl)cc3)nc3ccccc32)cc1,1,0.085
COC(=O)c1cc2ccsc2n1Cc1nc(-c2ccccc2C)oc1C,1,-0.051
Cc1nc2ccc(S(=O)(=O)NC(CC(C)C)C(=O)NC3CCC(C)CC3)cc2s1 (stereo not drawn),0.98,-0.3

# Assay outcomes as filed in PubChem.
